AID504770: growth inhibition of E. coli YBA685, primary screen, V. cholerae RctB inhibitors; E. coli YBA685 rctB-dependent plasmid, OD600 growth, 3 h; stronger effect = lower value; z-score (no concentration beside the values); 0.27% of 130,000 active; AID 504770, 2011;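 active means z-score under -2 on both plates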;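 further: wells of about 30 µL received 100 nL stock; score is relative to mean and SD of the test wells; the first replicate is given; strong numbers were not always called active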
CapD inh: Bacillus anthracis CapD inhibitors, primary screen, biochemical, fluorescence intensity; CapD gamma-glutamyltranspeptidase (Bacillus anthracis Ames Ancestor); purified CapD enzyme, fluorescence intensity read-out; stronger effect = lower value; some hits fall short of the stated cut; z-score (concentration not given with the values); 0.23% of 140,000 active;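 active means z-score under -4 in either of two replicates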;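 further: stock transfer was 100 nL into about 40 µL; score is relative to mean and spread of the plate; one replicate is shown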
* hit, by the source's call; i = inactive; · = no result given.

Second line of a record: AID504770	CapD inh
- O=C(CSc1nc2ccccc2nc1SCC(=O)N1CCCCC1)N1CCCCC1
    -1.1	0
- O=C1CC(c2ccccc2Cl)Cc2nc(NCC3CCCO3)ncc21 (stereo not given)
    0.8	1.4
- COc1cccc(OCC(=O)Nc2cccc(Cl)c2)c1
    0.45	-0.41
- COc1ccc(C[C@H]2NC[C@H](O)[C@H]2OC(C)=O)cc1
    -0.25	-0.33
- CC1Cc2ccccc2N1S(=O)(=O)c1ccc2nc(-c3ccccc3)[nH]c2c1 (stereo not given)
    0.75	-0.12
- CCc1cc(Br)ccc1S(=O)(=O)NCCSCc1c(Cl)cccc1Cl
    ·	0.76
- CCOC(=O)N1CCN(C(=O)c2c[nH]c3ccc(S(=O)(=O)N(C)c4cc(C)ccc4C)cc3c2=O)CC1
    ·	0.04
- COc1ccc(N2CC(O)(c3ccc(C)cc3)[N+]3=C2CCCC3)cc1 (stereo not given)
    ·	-0.02
- O=C(COC(=O)c1ccc(-n2cnnn2)cc1)Nc1ccc2ccccc2c1
    -0.05	·
- O=C(NC12CC3CC(CC(C3)C1)C2)c1ccccc1O
    -0.55	6.7
- CC(C)OC1=NS(=O)(=O)c2ccccc21
    -0.25	·
- Cc1ccc(C(=O)Nc2cccc(-c3cn4cccnc4n3)c2)cc1
    0.15	115
- CCOc1cc(/C=C2\N=C(c3ccc(Cl)cc3)OC2=O)cc(Br)c1OC(C)=O
    ·	0.93
- CN1CCN(CC(O)Cn2c3ccccc3c3ccccc32)CC1 (stereo not given)
    ·	9.2
- c1coc(C2=NCCN2)c1
    -0.8	·
- COc1ccc(C(c2nnnn2C(C)(C)C)N2CCN(c3ccccc3)CC2)cc1 (stereo not given)
    -0.35	·
- O=C(O)/C=C/c1ccc(OC(F)F)cc1
    -0.3	0.21
- CC(=O)Nc1ccc(/C=C2\CCc3ccccc3C2=O)cc1
    0	0.26
- O=S(=O)(NCCCc1nc2ccccc2[nH]1)c1ccccc1
    -0.8	-0.12
- Cc1ccc(S(=O)(=O)Nc2nc(C)cc(-n3nc(C)cc3C)n2)cc1
    ·	0.43
- O=C(CCNC(=O)c1ccccc1Cl)Nc1cc(Cl)ccc1N1CCOCC1
    0.2	·
- O=C(CCSc1ccccc1)Nc1nccs1
    -0.75	-0.065
- COC(=O)c1c(SCc2ccc(C#N)cc2)nc(=O)[nH]c1C
    -0.2	·
- CCOc1ccc(N/C(SCc2ccc(Cl)cc2)=C(/C#N)C(=O)NCc2ccc3c(c2)OCO3)cc1
    ·	5.1
- Cc1cc(C(=O)N(C/C=C/c2ccccc2)c2ccc3c(c2)OCCO3)no1
    -1.9	·
- COc1cccc(N/C(N)=N/c2nc(CSc3ccccn3)cc(=O)[nH]2)c1
    -0.2	-0.2
- CC(C)(C)OC(=O)NCCCNC(=S)Nc1ccc2c(c1)OCCO2
    ·	0.06
- OC(c1ccccc1)C(CN1CCCCC1)CN1CCCCC1 (stereo not given)
    -0.05	-0.36
- COc1ccc(S(N)(=O)=O)cc1C(=O)OCc1cc(=O)oc2cc(NC(C)=O)ccc12
    -0.3	·
- CSC(=Nc1ccc(C(C)C)cc1)NC#N
    ·	-0.18
- CCOC(=O)Cc1nnc2c(Nc3cccc(Br)c3)nc3nonc3n12
    ·	0.16
- CC1CN(/C(N)=N/S(=O)(=O)c2cc(C(F)(F)F)cc(C(F)(F)F)c2)CC(C)O1 (stereo not given)
    0.5	0.66
- CCc1ccc(C2N3CC4(C)CN2CC(C)(C3)C4)cc1 (stereo not given)
    -0.85	0.35
- Cc1cc(NN)nc(SCC(=O)NN)n1
    -0.75	0.11
- CC1CCN(c2ncnc3ccc(Br)cc23)CC1
    1.5	-0.45
- Cc1ccccc1-c1nc(CS(=O)CC(=O)NC(C)C)c(C)o1 (stereo not given)
    -0.45	-0.095
- Cc1ccc(C(C)NC(=O)c2c(-c3ccccc3Cl)noc2C)c(C)c1 (stereo not given)
    -0.6	0.6
- CCOC(=O)c1[nH]c2ccccc2c1NC(=O)COc1ccccc1
    -1.1	69
- Cc1sc(/N=C/c2ccc(Cl)c(Cl)c2)c(C#N)c1C
    -0.25	8.3
- Nc1n[nH]c2nc(C(F)(F)F)cc(=O)n12
    -0.3	·
- CC(C)c1ccc(C2Oc3ccc(Br)cc3C3CC(c4ccccc4)=NN32)cc1 (stereo not given)
    ·	-0.28
- Cc1ccc(N2C(=O)C(N3C(=O)CCC3=O)C2c2ccc(F)cc2)cc1 (stereo not given)
    -0.4	-0.27
- CCOC(=O)Oc1cc(N)c(Cl)cc1Cl
    -0.85	-0.44
- COc1ccccc1N1CCN(C(=O)CC2SC(N)=NC2=O)CC1 (stereo not given)
    -0.05	·
- Oc1c(C(Nc2ccc(F)cc2)c2ccncc2)ccc2cccnc12 (stereo not given)
    0.45	-0.55
- O=C(COC(=O)c1cc2c(s1)CCCCC2)c1cccs1
    -0.25	·
- CC1CCCN(CN2C(=O)C3(OCC(CO)([N+](=O)[O-])CO3)c3ccccc32)C1 (stereo not given)
    ·	0.22
- CC1CC(=O)Nc2ccccc2N1C(=O)CSc1ccccn1 (stereo not given)
    -1.2	·
- CC(C)=CCC/C(C)=C\COC(=O)N1CCc2c([nH]c3ccccc23)C1
    ·	0.14
- CC(=O)Nc1onc(C)c1-c1nc(-c2ccc(Cl)cc2Cl)cs1
    -1.7	-0.46
- O=C1C2C3C=CC(C2C(=O)N1Cc1ccco1)C1C2C(=O)N(Cc4ccco4)C(=O)C2C31 (stereo not given)
    ·	0.025
- Cc1oc(CC(C)C)cc1C(=O)Nc1cccc(C(=O)O)c1
    0.85	0.3
- COc1ccc(C=Nc2ccccc2Sc2ccccc2)cc1O
    1.6	-0.91
- CC(C)c1ccc(-c2noc(C3CCCN(C(=O)c4ccccc4)C3)n2)cc1 (stereo not given)
    0.35	·
- Cc1cc(Cl)ccc1OC(C)C(=O)NNC(=O)c1cccc(S(=O)(=O)O)c1 (stereo not given)
    ·	0.4
- NNc1nc2c(-c3ccc(Cl)cc3)nnn2c2ccccc12
    0.4	1.1
- CC(C)COC(=O)Cn1cnc2ccc(Br)cc2c1=O
    -0.3	0.52
- CCc1c(CN(C)Cc2ccccc2)csc1C
    0.15	0.08
- CC(C)(C)c1cc(N=O)cc(C(C)(C)C)c1O
    0.85	-0.6
- CO/N=C/c1c(-c2ccccc2)nn(C)c1Sc1ccc(Cl)cc1
    ·	0.12

Compound profiles, from the list above. Values in the order: AID504770, CapD inh
Shown for COc1ccccc1N1CCN(C(=O)CC2SC(N)=NC2=O)CC1 (stereo not given) → -0.05, ·
Shown for Cc1oc(CC(C)C)cc1C(=O)Nc1cccc(C(=O)O)c1 → 0.85, 0.3
Shown for Cc1sc(/N=C/c2ccc(Cl)c(Cl)c2)c(C#N)c1C → -0.25, 8.3
Shown for CCOC(=O)c1[nH]c2ccccc2c1NC(=O)COc1ccccc1 → -1.1, 69
Shown for CC(=O)Nc1onc(C)c1-c1nc(-c2ccc(Cl)cc2Cl)cs1 → -1.7, -0.46

Returning to the listing, repeating the four entries before the break.
Second line of a record: AID504770	CapD inh
- CC(C)COC(=O)Cn1cnc2ccc(Br)cc2c1=O
    -0.3	0.52
- CCc1c(CN(C)Cc2ccccc2)csc1C
    0.15	0.08
- CC(C)(C)c1cc(N=O)cc(C(C)(C)C)c1O
    0.85	-0.6
- CO/N=C/c1c(-c2ccccc2)nn(C)c1Sc1ccc(Cl)cc1
    ·	0.12
- Cn1c(C(C#N)c2ncc(Cl)cc2Cl)nc2ccccc21 (stereo not given)
    0.2	0.79
- CC1=NC(C(F)(F)F)(C(F)(F)F)C2=C(CC(C)(C)CC2=O)N1CC1CCCO1 (stereo not given)
    1.2	-0.74
- CSc1n[nH]c(-c2ccc(C(F)(F)F)cc2)n1
    -0.8	1.2
- CCCc1ccc(S(=O)(=O)N2CCCC2C(=O)OCc2ccc([N+](=O)[O-])cc2)cc1 (stereo not given)
    ·	0.56
- Cc1cc(NC(=O)c2ccc(-c3nc4ccccc4s3)s2)no1
    0.3	3.5
- O=C(OCc1ccccc1)c1cccc(OC(F)F)c1
    -0.15	·
- O=C(COC(=O)Cn1cc(C(F)(F)F)ccc1=O)NCc1ccco1
    1.1	·
- O=C(CSc1nc2c(c(=O)n1-c1ccccc1)SCC2)Nc1ccccc1
    0.6	-1.3
- O=C(NC1CC1)C1CCN(c2nnc(-n3cccc3)s2)CC1
    -0.65	-0.2
- COc1ccc(N2C(N)=C(C#N)C(c3ccc4c(c3)OCO4)C3=C2CC(C)(C)CC3=O)cc1 (stereo not given)
    ·	0.19
- CCN(CC)c1ccc(/C=N/N=C/c2ccc(N(CC)CC)cc2)cc1
    ·	0.61
- COc1cccc(N(C(C)=O)C2C=CS(=O)(=O)C2)c1 (stereo not given)
    0.3	-0.02
- O=c1cc(-c2ccccc2)oc(=O)[nH]1
    1.7	0.97
- CCCCC#CCCOC(=O)NC(c1ccccc1)c1ccc(Cl)cc1 (stereo not given)
    ·	-1.1
- CON1C(=O)CN(C(=O)c2ccccc2)C1(C)C
    ·	0.48
- Nc1c(Cl)cc(N2C(=O)C3C4c5ccccc5C(c5ccccc54)C3C2=O)cc1Cl (stereo not given)
    ·	0.07
- CCCCN1C(=O)/C(=C2/Sc3ccc(OC)cc3N2C)SC1=S
    -0.3	-0.055
- CC(=O)Nc1nonc1NC(=O)CSc1ncccn1
    -0.5	0.28
- Cc1ccc(OC(C)n2ccc3c2CCCC3)cc1 (stereo not given)
    1.5	1.5
- OC(CNC1Cc2ccccc2C1)COc1ccc(Cl)cc1 (stereo not given)
    0.1	0.48
- Cc1nc2ncnn2c(C)c1CCC(=O)NCc1ccc(F)cc1
    1.4	0.25
- Nc1nc(-c2ccc(Br)s2)cs1
    ·	-0.4
- Cc1[nH]c2ccc(C(=O)OCC(=O)N3CCCC3=O)cc2c1C
    0.25	·
- CC[n+]1c(/C=C2\C=C(C)CC(C)(C)C2)oc2ccccc21
    -0.35	1.2
- Fc1ccccc1CNCCCn1ccnc1
    -0.5	·
- CN(C(=O)CSc1cc(=O)n(C)c2ccccc12)C1CCCCC1
    -0.4	30
- Cc1ccc(-c2[nH]nc3c2C(c2ccc(OC(=O)N4CCOCC4)cc2)C(C#N)=C(N)O3)cc1 (stereo not given)
    ·	0.18
- O=C(CSCc1cnn(-c2ccccc2)c1-n1cccc1)N1CCN(c2ccccn2)CC1
    -0.9	0.79
- CC1=C(C(=O)Nc2cccc(F)c2)C(c2cccs2)C2=C(CCCC2=O)N1 (stereo not given)
    0.3	5
- COc1cccc(OC)c1CNS(=O)(=O)c1ccc(NC(C)=O)cc1
    ·	-0.31
- COc1ccccc1CNC(=O)c1ccccn1
    0.95	·
- FC(F)(F)c1ccc(CSc2c[nH]c3ccccc23)cc1
    -0.1	-1.6
- COc1ccccc1CNC(=O)c1sc2ncnc(N3CCN(c4ccccn4)CC3)c2c1C
    ·	-0.91
- CCC(=O)Nc1nc(-c2ccc(Cl)cc2)nc2c1c(=O)oc1ccccc12
    ·	-0.52
- CN(C(=O)COc1cc(=O)n(C)c2ccccc12)c1ccc(Br)cc1
    0.1	-0.14
- O=C1Nc2ccccc2C(O)(C(=O)NC2CC2)N1c1ccccc1 (stereo not given)
    ·	0.19
- CCOc1ccc(CCN2C(=O)C3C4C=CC(C4)C3C2=O)cc1OCC (stereo not given)
    -0.15	0.85
- CC(=O)N1CCC(N(C(=O)Nc2ccccc2)C(C)C)CC1
    0.4	-0.1
- COc1cccc(NC(=O)CCCSc2nc(-c3ccco3)cc(C(F)(F)F)n2)c1
    -0.6	0.31
- CCN(CC)c1ccc2cc(C(=O)Nc3ccccc3)c(=O)oc2c1
    -0.35	i
- N#CC(C#N)=c1ccc(=C(C#N)C#N)cc1
    ·	0.74
- O=C(Nc1ccc2c(c1)COC2=O)c1cccc(Cl)c1
    -0.65	4.1
- COc1cccc(NC(=O)C2(C#N)Cc3ccccc3N3CCCC32)c1 (stereo not given)
    -1	·
- CS(=O)(=O)c1cc(C#N)c(N2CCN(c3cccc(Cl)c3)CC2)nc1-c1ccc(Cl)cc1
    ·	0.05
- COc1ccc(C2=NN(C(=O)Cn3cc(C(F)(F)F)ccc3=O)C(c3ccco3)C2)cc1 (stereo not given)
    -0.3	·
- CCN(CC)C(=O)CSc1nc2sccc2c(=O)n1-c1ccccc1
    -0.3	·
- O=c1c(Oc2ccccc2)coc2cc(OCc3ccccc3)ccc12
    0.55	0.42
- O=C(CSCc1nc2ccccc2c(=O)n1-c1ccccc1Cl)Nc1ccccc1
    ·	-0.035
- O=C(NC1CCCC1)N1CCC2(CC1)Oc1ccccc1C(=O)N2Cc1ccc(F)cc1
    0.25	0.91
- O=C1c2cc(S(=O)(=O)N3CCOCC3)cc([N+](=O)[O-])c2-c2c1cc(S(=O)(=O)N1CCOCC1)cc2[N+](=O)[O-]
    ·	0.21
- COc1cc(OC)cc(C(=O)NCc2ccc(Cl)cc2)c1
    ·	-0.18
- COc1ccccc1CCN=Cc1ccnc(SCc2ccc(Cl)cc2Cl)n1
    0.35	9.8
- O=C(OCCc1ccc(Br)cc1)N1CCC(N2CCCCC2)CC1
    ·	-0.6
- CC(C)(C)c1ccc(O)c(NC(=O)OCCC2CCCCC2)c1
    ·	-0.3
- COc1ccccc1C(c1c(O)[nH]c(=S)[nH]c1=O)N(Cc1ccccc1)C(C)C (stereo not given)
    -0.2	2.1
- Cc1ccc(N(CC(=O)Nc2ccc(S(=O)(=O)N3CCCCC3)cc2)S(=O)(=O)c2ccc(F)cc2)cc1
    ·	-0.01

Bioassay records as filed in PubChem BioAssay.

Hits appear at their usual frequency; 0.41% or so of the library scored in one or more.
